High-throughput results from PubChem BioAssay.
Cruzain Triton – qHTS Assay for Promiscuous and Specific Inhibitors of Cruzain (with detergent) | purified cruzain, Z-FR-AMC fluorescence, 0.01% Triton | Potency, µM, inactives show max response, negative = inhibition, usual class: inhibitors | 200,000 tested, 0.43% active;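 further: plate controls were neutral wells for no effect and buffer without enzyme for full effect; nearly all actives have a fitted effect of over 40% in size; top concentration of the series not given in the record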
Target sequence (P25779 123-467 limits assumed): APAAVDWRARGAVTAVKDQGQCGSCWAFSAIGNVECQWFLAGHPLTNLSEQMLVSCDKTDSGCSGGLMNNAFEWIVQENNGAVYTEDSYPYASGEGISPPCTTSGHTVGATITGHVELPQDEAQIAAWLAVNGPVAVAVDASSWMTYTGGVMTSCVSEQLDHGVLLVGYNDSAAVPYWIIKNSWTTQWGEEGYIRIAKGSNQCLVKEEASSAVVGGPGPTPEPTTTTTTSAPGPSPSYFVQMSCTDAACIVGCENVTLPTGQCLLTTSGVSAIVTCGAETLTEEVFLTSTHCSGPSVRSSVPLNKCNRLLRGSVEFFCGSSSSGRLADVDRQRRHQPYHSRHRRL
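Z-FR-AMC hydrolysis (2 uM substrate) by cruzain (1.5 nM) monitored kinetically at ex 360/em 450 nm after 15 min room-temperature compound exposure; 0.01% Triton X-100, pH 5.5, 5 mM DTT.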
SARS PLP yeast – qHTS of Yeast-based Assay for SARS-CoV PLP. 330,000 tested, 0.19% active. S. cerevisiae expressing SARS-CoV PLpro, growth rescue; control for the full effect not named in the record. AID 485353, 2010. Potency, µM (top dose mostly 32.9 µM), for inactives: at the highest dose activity, positive = growth rescue; active means well fitted rising curve with a large enough effect; inconclusive means small, poorly fitted or top-dose-only effect; inactive means no such curve, though single readings can be large or run the other way; further: 0% is about no effect; nearly all actives have a fitted effect of over 55% in size; growth read by luminescence after 48 h
RE007 growth inh – qHTS Assay for Inhibitors of the HIV-1 protein Vpr; AID 651644, 2012; S. pombe RE007 Vpr strain, BacTiter-Glo ATP luminescence, 24 h; control for the full effect not named in the record; Potency, µM (series often up to 92.2 µM), without a hit: at the highest dose activity change, negative = less growth; 360,000 tested, 0.21% active; active = well fitted falling curve with a large enough effect; inconclusive = small, poorly fitted or top-dose-only effect; inactive = no such curve, though single readings can be large or run the other way;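 further: on the % scale 0 is the no-effect control and ±100 the full control effect; nearly all actives have a fitted effect of over 50% in size; the assay follows cell death caused by Vpr and the record does not say whether a fall means rescue or toxicity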
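Fission yeast RE007 carrying one integrated HIV-1 vpr copy, seeded at OD 0.01 in PMG+AL medium with 23 nL pinned compound. Grown 24 h at 30 degrees; viability read by BacTiter-Glo luminescence after 5 min.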
LASV entry inh – qHTS for Inhibitors of binding or entry into cells for Lassa Virus; Potency, µM (titrated, usually from 37.9 µM), inactives show top-dose activity change, negative = inhibition, usual class: inhibitors; 300,000 tested, 1.2% active; Lassa virus pseudotype entry inhibition, cell reporter; control for the full effect not named in the record; active means well fitted inhibition curve with a large enough effect; inconclusive means small, poorly fitted or top-dose-only effect, or effect the other way; inactive means flat fitted curve, though single readings scatter; tested in HEK293 cells; further: on the % scale 0 is the no-effect control and ±100 the full control effect; nearly all actives have a fitted effect of over 50% in size; luciferase read-out
NS1 function inh – qHTS Assay for Inhibitors of Influenza NS1 Protein Function; Potency, µM (top dose mostly 46.1 µM), inactives show top-dose activity, positive = more growth; AID 2326, 2010; 270,000 tested, 0.4% active; S. cerevisiae slowed by influenza A NS1, growth recovery by OD600; active means well fitted rising curve with a large enough effect; inconclusive means small, poorly fitted or top-dose-only effect; inactive means no such curve, though single readings can be large or run the other way; further: nearly all actives have a fitted effect of over 50% in size
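A cell-based growth assay was used: compounds that relieve NS1-induced slow growth of budding yeast raise OD600. Assay medium was yeast nitrogen base with ammonium sulphate and -URA supplement, pH 6.0, with 2% galactose.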
Cruzain inh noDet – qHTS Assay for Promiscuous and Specific Inhibitors of Cruzain (without detergent) | Potency, µM, for the others: max response, negative = inhibition, actives largely listed as inhibitors | 200,000 tested, 2.3% active | purified cruzain, Z-FR-AMC fluorescence, no detergent | Cruzipain (Trypanosoma cruzi), P25779;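 further: plate controls were enzyme without inhibitor for no effect and buffer without enzyme for full effect; nearly all actives have a fitted effect of over 40% in size; top concentration of the series not given in the record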
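Detergent-free condition (0.00005% Triton X-100) in acetate buffer pH 5.5 with DTT. 1.5 nM enzyme and compound were pre-mixed 15 min, then 2 uM Z-FR-AMC substrate added; reaction progress from fluorescence change between first and third reads (60 s).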
MARV entry inh – qHTS for inhibitors of binding or entry into cells for Marburg Virus; AID 540276, 2011; Marburg virus pseudotyped entry inhibition, cell reporter; control for the full effect not named in the record; about a third of the inactives were read at about 46 µM; Potency, µM (doses to about 37.8 µM), inactives show at the highest dose activity change, negative = inhibition, most hits filed as inhibitors; 300,000 tested, 1.8% active; active = well fitted inhibition curve with a large enough effect; inconclusive = small, poorly fitted or top-dose-only effect, or effect the other way; inactive = flat fitted curve, though single readings scatter; tested in HEK293 cells; about a fifth of its hits are not listed in these tables; further: on the % scale 0 is the no-effect control and ±100 the full control effect; luciferase read-out
StopGo reporter – High Throughput Screening for Foot and Mouth Disease Virus Antivirals; human cells with a luciferase reporter of 2A StopGo recoding; control for the full effect not named in the record; Potency, µM (series often up to 57.9 µM), for inactives: at the highest dose signal change, negative = less light; 410,000 tested, 1.2% active; active = well fitted falling curve with a large enough effect; inconclusive = small, poorly fitted or top-dose-only effect; inactive = no such curve, though single readings can be large or run the other way; tested in HEK293T cells; further: on the % scale 0 is the no-effect control and ±100 the full control effect; nearly all actives have a fitted effect of over 45% in size; luciferase light after 4 h
* marks the source's active call; other numbers are inactive results; ? = inconclusive; / = no result given; & = joins results of further samples; [ ] = remark or other dose. Unless noted, the call rests on the fitted dose curve; in most records, active means well fitted curve in the direction sought with a large enough effect; inconclusive means small, poorly fitted or top-dose-only effect, or another doubt; inactive means no such curve, though single readings can be large; an effect the other way counts as inactive or inconclusive. Potency means the concentration at half of the fitted maximal effect.

canonical_smiles	Cruzain Triton	SARS PLP yeast	RE007 growth inh	LASV entry inh	NS1 function inh	Cruzain inh noDet	MARV entry inh	StopGo reporter
CCC(=O)N1CCc2cc(Br)cc(S(=O)(=O)N3CCCC(C(=O)Nc4ccc(OC)c(Cl)c4)C3)c21 (stereo unspecified)	-6.6%	/	/	12%[46.1 µM]	/	-13%	-20%[46.1 µM]	-13%
COc1ccc(CNC(=O)C(C)N(Cc2ccco2)C(=O)c2snc(C(N)=O)c2N)cc1 (stereo unspecified)	-4.6%	4%	-5%	-1%	-4%	-13%	-20%	-24%
CCOC(=O)N1CCN(C(=O)c2cc(COc3cccc(C(F)(F)F)c3)on2)CC1	/	-3%	-24%	?	-39%	/	?	-2%
Cc1cc(Nc2ccc(N(C)C)cc2)n2ncnc2n1	/	-5%	1%	-7%[46.1 µM]	-3%	/	-1%[46.1 µM]	14%
CCCOc1ccc(-c2c(C(=O)N/N=C/C3CC=CCC3)nnn2-c2nonc2N)cc1 (stereo unspecified)	/	-2%	0%	0%[46.1 µM]	18%	/	2%[46.1 µM]	-13%
Cc1c(C(=O)NCc2ccccn2)oc2ccc(S(=O)(=O)N3CCOCC3)cc12	-11%	3%	9%	-3%	-7%	1%	-10%	-24%
Fc1ccc(C(CCCn2nnc(-c3cccnc3)n2)c2ccc(F)cc2)cc1	-4.8%	-18%	19%	-8%	-1%	23%	?	?
COc1ccc(/C=N/n2c(-c3ccc(C)cc3)n[nH]c2=S)cc1OC	/	-2%	13%	/	4%	/	/	-5%
CN(C)S(=O)(=O)c1ccc(C(=O)NCCS(=O)(=O)N2CCN(c3ccc(F)cc3)CC2)cc1	/	9%	-7%	11%[46.1 µM]	11%	/	-28%[46.1 µM]	-13%
COc1ccc(/C=N/NC(=O)CCn2nc(C)cc2C)cc1	/	0%	6%	?	-1%	/	4%[46.1 µM]	-8%
O=[N+]([O-])c1cc(S(=O)(=O)Nc2ccccc2)ccc1-n1nnc2ccccc21	11µM*	0%	0%	5%	13%	?	10%	-1%
CN(c1ccc(C(=O)NCCSCc2ccc(Cl)cc2)cc1)S(=O)(=O)c1ccccc1	-7.3%	-18%	8%	?	-24%	9%	0%	-24%

Some of the entries so far, with each value named:
Molecule: Fc1ccc(C(CCCn2nnc(-c3cccnc3)n2)c2ccc(F)cc2)cc1
  Cruzain Triton: -4.8%
  SARS PLP yeast: -18%
  RE007 growth inh: 19%
  LASV entry inh: -8%
  NS1 function inh: -1%
  Cruzain inh noDet: 23%
  MARV entry inh: ?
  StopGo reporter: ?

Molecule: COc1ccc(/C=N/n2c(-c3ccc(C)cc3)n[nH]c2=S)cc1OC
  Cruzain Triton: /
  SARS PLP yeast: -2%
  RE007 growth inh: 13%
  LASV entry inh: /
  NS1 function inh: 4%
  Cruzain inh noDet: /
  MARV entry inh: /
  StopGo reporter: -5%

Molecule: CN(C)S(=O)(=O)c1ccc(C(=O)NCCS(=O)(=O)N2CCN(c3ccc(F)cc3)CC2)cc1
  Cruzain Triton: /
  SARS PLP yeast: 9%
  RE007 growth inh: -7%
  LASV entry inh: 11%[46.1 µM]
  NS1 function inh: 11%
  Cruzain inh noDet: /
  MARV entry inh: -28%[46.1 µM]
  StopGo reporter: -13%

Molecule: COc1ccc(/C=N/NC(=O)CCn2nc(C)cc2C)cc1
  Cruzain Triton: /
  SARS PLP yeast: 0%
  RE007 growth inh: 6%
  LASV entry inh: ?
  NS1 function inh: -1%
  Cruzain inh noDet: /
  MARV entry inh: 4%[46.1 µM]
  StopGo reporter: -8%

(next part)
canonical_smiles	Cruzain Triton	SARS PLP yeast	RE007 growth inh	LASV entry inh	NS1 function inh	Cruzain inh noDet	MARV entry inh	StopGo reporter
Cc1ccc(-c2nc3c(c(SCC(=O)Nc4ccccc4Cl)n2)Cc2c(CO)cnc(C)c2O3)cc1	0.4%	/	/	6%[46.1 µM]	/	-3%	/	-13%
O=C(CNC(=O)c1ccc(Br)cc1)OCc1cc([N+](=O)[O-])cc2c1OCOC2	/	-3%	4%	/	/	/	4%[46.1 µM]	21%
CCn1c(=O)c2sccc2n2c(CCCC(=O)N3CCN(c4ccc(F)cc4)CC3)nnc12	2.5%	/	/	-20%[46.1 µM]	/	3%	/	-10%
CC(=O)N1CCN(CC(O)Cn2c3ccccc3c3ccccc32)CC1 (stereo unspecified)	/	-7%	-12%	5%[46.1 µM]	15%	/	11%[46.1 µM]	-13%
Cc1ccc(S(=O)(=O)Nc2ccc(Br)cc2C(NCC(=O)O)c2ccccc2)cc1 (stereo unspecified)	-12%	0%	7%	14%	10%	15%	-10%	-19%
O=C(Nc1ccccc1)C1C2CCC3C(CCC21)C3(Cl)Cl (stereo unspecified)	-1.4%	-11%	2%	?	-3%	-11%	0%	-5%
Fc1ccccc1COc1ccc(Br)cc1CNCC1CCCO1 (stereo unspecified)	/	-2%	-7%	/	2%	/	/	?
COCCNC(=O)CN(C(=O)CCC(=O)Nc1ccccn1)c1ccc(C)cc1	/	-4%	-10%	/	6%	/	/	-4%
Cc1oncc1C(=O)NC1CCCCC1	/	-1%	-10%	18%	4%	/	?	15%
CCCn1ncc(CN2CCC(CO)(Cc3ccc(OC)cc3)CC2)c1C	/	0%	-14%	?	-1%	/	-15%[46.1 µM]	6%
O=C(CC1SC(=O)N(Cc2cccc3ccccc23)C1=O)Nc1nccs1 (stereo unspecified)	-11%	-5%	10%	-11%	?	?	0%	-8%
COc1ccc(NC(=O)CSc2nnc(NC(C)=O)s2)c([N+](=O)[O-])c1	/	0%	-1%	/	-1%	/	/	-23%

Later entries:
canonical_smiles	Cruzain Triton	SARS PLP yeast	RE007 growth inh	LASV entry inh	NS1 function inh	Cruzain inh noDet	MARV entry inh	StopGo reporter
CN(Cc1c(C(=O)N/N=C/c2ccccc2F)nnn1-c1nonc1N)c1ccccc1	/	8%	5%	/	0%	/	/	-17%
Cc1ccccc1OCCC(=O)N(Cc1ccccc1)c1c(N)n(Cc2ccccc2)c(=O)[nH]c1=O	/	-10%	-6%	11µM*	-24%	/	4%	0%
Cc1cc(C)nc(-n2nc(C)cc2NC(=O)CNC(C)c2ccccc2)n1 (stereo unspecified)	-0.6%	-4%	7%	13%	-1%	3%	27%	-15%
COc1ccc(NC(=O)c2cc(S(=O)(=O)N3CCCCC3)c[nH]2)cc1Cl	-1.4%	7%	-2%	-22%[46.1 µM]	-2%	1%	/	-1%&24%
CC(C)Cn1[nH]c2c3c(ccc2c1=O)C(=O)c1ccccc1C3=O	-0.1%	-10%	-11%	?	2%	3%	-28%	-2%
CCC(CC)c1nnc(NC(=O)c2cccnc2SC)s1	/	1%	-3%	/	-1%	/	-11%[46.1 µM]	-1%
Cc1noc(C)c1C(=O)OCC(=O)Nc1cccc(S(=O)(=O)N(C)C)c1	0.7%	4%	1%	2%	5%	-4%	19%	14%
CCOc1ccc(C(=O)Nc2ccc(N3CCN(C(C)=O)CC3)cc2)cc1[N+](=O)[O-]	/	-3%	-9%	/	-2%	/	/	-25%
COc1ccc(OC)c(C(=O)CN2CCN(S(=O)(=O)c3ccc(Br)cc3)CC2)c1	1.9%	-12%	-6%	?	-17%	25µM*	0%&0%[46.1 µM]	-33%
Cc1c(OC(C)C(=O)NCCCn2ccnc2)ccc2c3c(c(=O)oc12)CCC3 (stereo unspecified)	/	3%	-7%	1%[46.1 µM]	-5%	/	?	-12%
O=C(Cn1cnc2cc([N+](=O)[O-])ccc2c1=O)Nc1ccccc1Cl	/	0%	0%	/	5%	/	/	-27%
Cn1c2ccc(F)cc2c2ncn(CCN3CCOCC3)c(=O)c21	-3.9%	1%	16%	4%	-1%	2%	0%[46.1 µM]	2%

Next part:
Below each SMILES: Cruzain Triton	SARS PLP yeast	RE007 growth inh	LASV entry inh	NS1 function inh	Cruzain inh noDet	MARV entry inh	StopGo reporter
> Cc1nnc(N2C(=O)C(=O)/C(=C(\O)c3ccc4c(c3)CC(C)O4)C2c2ccccc2)s1 (stereo unspecified)
    /	-5%	-4%	?	?	/	0%[46.1 µM]	-13%
> COc1ccc(N2CCN(C(=O)CNS(=O)(=O)c3ccc(Br)s3)CC2)cc1
    -0.8%	-4%	-7%	15%&-22%[46.1 µM]	-23%	4%	?	-6%&-5%
> O=C(Cc1ccc(Cl)cc1)Nc1ccc(CN2CCCCC2)cc1
    /	1%	-10%	20%[46.1 µM]	3%	/	?	-15%
> COc1cccc(C(=O)Nc2cc(=O)n(C)c(=O)n2C)c1
    /	-3%	22%	/	0%	/	/	-2%
> O=[N+]([O-])c1cccc(-c2nn(-c3ccccc3)cc2CO)c1
    /	-3%	-5%	/	1%	/	/	17%
> CCCCn1c(N)c(N(CCC(C)C)C(=O)C2CC(=O)N(Cc3ccc(C)cc3)C2)c(=O)[nH]c1=O (stereo unspecified)
    /	3%	3%	-21%	/	/	7%	-9%
> COc1ccc(C)cc1-n1nnnc1SCC(=O)N1CCC(C(=O)Nc2nccs2)CC1
    -1.1%	-1%	4%	2%	4%	?	-3%&-3%	-14%
> CCOC(=O)N1CCC(NC(=O)c2cc(S(=O)(=O)N3CCCC3)cn2C)CC1
    2.9%	1%	20%	-3%	5%	24%	2%	13%
> Cc1ccc(CC(CC(=O)O)C(=O)Nc2ccc(Cl)cc2)cc1 (stereo unspecified)
    /	3%	-21%	/	1%	/	/	-12%
> Cc1cc(C(=O)NCCc2ccc(Cl)cc2)c2c(C)nn(-c3cccc(F)c3)c2n1
    -11%	/	/	26%[46.1 µM]	/	-10%	/	6%
> Cc1ccc(C)c(NC(=S)NNC(=S)Nc2ccc(C(C)C)cc2)c1
    /	-4%	-21%	?	21%	/	?	1%
> O=C(CN1CCCCC1)NCCNC(=O)CN1CCCCC1
    1.9%	-1%	2%	-22%	-2%	1%	?	-9%
> C=CC1=C(C(=O)O)N2C(=O)C(NC(=O)Cc3ccccc3)C2SC1 (stereo unspecified)
    -1.3%	2%	9%	7%	4%	0%	6%	/
